Sa RN4220 lethal – S. aureus RN4220 growth inhibition; actives 0.33% (n = 330,000); OD600, 16 h; inhibition, % (no concentration beside the values);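 active means z-score of -3 or lower and OD600 up to 0.18 on both plates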;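 further: plate controls were untreated cells for no effect and reference antibiotic for full effect; stock transfer was 100 nL into about 80 µL; one replicate is shown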
PrP 5UTR inh – suppresses PrP 5' UTR mRNA reporter expression; cell-based PrP 5' UTR mRNA reporter, plate reader; inhibition, % (test concentration not listed); actives 0.35% (n = 340,000);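 active means every replicate at 50% or more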;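 further: 0 = median of the neutral control wells; tested in H4 reporter cells; numbers are from one replicate; inactives centre near -14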
Bead autofluor – compound fluorescence in toxin protease inhibitor counterscreen | fluorescence intensity (test concentration not listed) | actives 3.1% (n = 360,000) | compound autofluorescence counterscreen, microsphere flow cytometry; active compounds read high;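 active means at least 3 SD above the mean of all compounds, about 16000 in these data; inconclusive means too few beads counted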;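 further: 100 nL of 1 mM stock went into each well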
BJeLR viability – BJeLR cell viability loss. BJeLR (HRASV12) viability, CellTiter-Glo ATP luminescence, 48 h; reference of the scale not given here. inhibition, % (concentration not given with the values). actives 0.17% (n = 300,000). AID 1554;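 active means replicate mean above 50%; inconclusive means above 50% but judged a plate artefact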;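 further: 50 nL library stock added to about 25 µL; numbers are from one replicate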
ugtP null kill – growth inhibition of S. aureus ugtP deletion strain; growth inhibition, % (no concentration beside the values); AID 1259309; actives 0.54% (n = 330,000); S. aureus RN4220 ugtP deletion, OD600 growth, 16 h; some inactives read as strong as hits;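 active means z-score under -3 and OD600 up to 0.15 on both plates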;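 further: plate controls were untreated wells for no effect and antibiotic for full effect; wells of about 80 µL received 100 nL stock; the first replicate is given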
Mtb hypoxia inh – inhibitors of hypoxia-regulated fluorescent reporter in Mycobacterium tuberculosis; actives 0.1% (n = 300,000); fluorescence inhibition, % (test concentration not listed); M. tuberculosis hypoxia-regulated fluorescent reporter, fluorescence;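 active means 35 to 45% if threefold the growth effect, above 45% if 1.5-fold the growth effect; inactive means the rest, general growth blockers included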;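 further: wells of about 50 µL received 100 nL stock; 0% = vehicle wells and 100% = reference inhibitor wells; whole bacteria with a GFP reporter of the hypoxia response; strong numbers were not always called active; many hits fall short of the cut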
Mtb hypoxia inh growth – recorded beside Mtb hypoxia inh, whose call it bears; growth inhibition, %; measured here: M. tuberculosis growth (absorbance);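 0% = vehicle and 100% = reference antibiotic; read after six days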
Active calls of the source: *; ? = inconclusive; / = no result given; & = joins results of further samples.

SMILES | Sa RN4220 lethal | PrP 5UTR inh | Bead autofluor | BJeLR viability | ugtP null kill | Mtb hypoxia inh | Mtb hypoxia inh growth
COc1cccc(-c2nnn(CC(=O)N(CC(C)C)C3CCS(=O)(=O)C3)n2)c1 (stereo not drawn) | -1.1 | -2 | ? | 7 | 0 | 3 | 11
CCc1ccc(N2C(=O)C(Cl)=C(N3CCOCC3)C2=O)cc1 | 2.4 | -16 | 2006 | 2 | -2 | 1 | -11
Cn1cccc1C(=O)C(=O)Nc1cc(Cl)cc(Cl)c1 | 0.4 | -58 | 4783 | 3 | -20 | / | /
Cc1cc(C)cc(OCC(=O)NNC(=O)c2cc3ccccc3o2)c1 | 0.7 | -23 | 2270 | 4 | -6 | -6 | 5
COc1ccc2nc(NC(=O)CSc3nc(C)cc(=O)[nH]3)sc2c1 | 20 | -17 | 3139 | -11 | -2 | -2 | 5
CC(=O)Nc1ccc(S(=O)(=O)NCC2CCC(C(=O)NCCCN3CCCC3=O)CC2)cc1 (stereo not drawn) | 4.7 | -18 | 3227 | 0 | -1 | 7 | 10
O=C(CN1C2CCC1CC(O)(c1cccnc1)C2)Nc1ccc2c(c1)OCO2 (stereo not drawn) | -1.6 | -4 | 3151 | -5 | 10 | / | /
Cc1ccc(S(=O)(=O)N2CCCCC2)cc1NC(=O)COC(=O)Cc1cccc2ccccc12 | 7.3 | -28 | 2525 | 5 | 15 | 10 | 5
CC(=NNC(=O)c1ccccn1)c1ccc(C(=O)O)s1 | 2.5 | / | / | / | 6 | 9 | 14
COc1cc(NC(=O)c2ccc(-c3cccc(F)c3)o2)ccc1NC(=O)c1ccccc1Cl | 4.4 | 9 | 3028 | / | 12 | 8 | 9

6 of the compounds above, with two lines to a compound:
Every second line gives: Sa RN4220 lethal | PrP 5UTR inh | Bead autofluor | BJeLR viability | ugtP null kill | Mtb hypoxia inh | Mtb hypoxia inh growth
COc1ccc2nc(NC(=O)CSc3nc(C)cc(=O)[nH]3)sc2c1
 : 20 | -17 | 3139 | -11 | -2 | -2 | 5
CC(=O)Nc1ccc(S(=O)(=O)NCC2CCC(C(=O)NCCCN3CCCC3=O)CC2)cc1 (stereo not drawn)
 : 4.7 | -18 | 3227 | 0 | -1 | 7 | 10
O=C(CN1C2CCC1CC(O)(c1cccnc1)C2)Nc1ccc2c(c1)OCO2 (stereo not drawn)
 : -1.6 | -4 | 3151 | -5 | 10 | / | /
Cc1ccc(S(=O)(=O)N2CCCCC2)cc1NC(=O)COC(=O)Cc1cccc2ccccc12
 : 7.3 | -28 | 2525 | 5 | 15 | 10 | 5
CC(=NNC(=O)c1ccccn1)c1ccc(C(=O)O)s1
 : 2.5 | / | / | / | 6 | 9 | 14
COc1cc(NC(=O)c2ccc(-c3cccc(F)c3)o2)ccc1NC(=O)c1ccccc1Cl
 : 4.4 | 9 | 3028 | / | 12 | 8 | 9

Following part
SMILES | Sa RN4220 lethal | PrP 5UTR inh | Bead autofluor | BJeLR viability | ugtP null kill | Mtb hypoxia inh | Mtb hypoxia inh growth
COc1cccc(CN2CC(C(=O)NCc3ccc(C)o3)CCC2=O)c1 (stereo not drawn) | / | -13 | 5868 | 0 | / | / | /
CCN1CCN(Cc2ccc(NC(=O)c3cc(NC(=O)c4cnn(-c5ccccc5)c4N)cc(OC)c3)cc2C(F)(F)F)CC1 | -4.9 | 10 | 4356 | 10 | 0 | -7 | 18
Cc1ccc(NC(=O)C2CCCN(C(=O)c3ccc(Cl)cc3)C2)c(C)c1 (stereo not drawn) | 2.3 | 9 | 3443 | 9 | 0 | 3 | -2
Cc1c(C)n2c(SCC(=O)NC3CCCCC3)nnc2[nH]c1=O | 4.1 | -10 | 5438 | -4 | 9 | 1 | 10
Cc1cc(C)c(NC(=O)CSc2nc3ccc(NC(=O)CSc4nnnn4-c4ccccc4)cc3s2)c(C)c1 | 4.2 | -18 | 2660 | 1 | 9 | 8 | -1
COCCNS(=O)(=O)c1ccc(C)c(C)c1C | 4.6 | -10 | 4331 | 6 | -6 | 10 | 3
COc1ccc(OCc2nnc(SCC(=O)c3c(N)n(C)c(=O)n(C)c3=O)n2-c2ccccc2F)cc1 | -7.9 | / | / | -2 | -1 | 0 | 1
COc1cccc(CNC(=O)C2CCCN(S(=O)(=O)c3cccc4nonc34)C2)c1 (stereo not drawn) | 1.6 | -14 | 6531 | -6 | -2 | 3 | 1
CC(=O)Nc1nc(S(=O)(=O)c2ccc(C)cc2)c(Cl)s1 | 7.5 | -25 | 3735 | 3 | -9 | 9 | 12
O=C(O)c1ccc2c(c1)NC(=O)C(N1CCCC1)S2 (stereo not drawn) | 3.2 | -13 | 15935 | 4 | 13 | 6 | 6
CCOC(=O)c1[nH]c(C)c(C(=O)N2CCN(c3ccccc3OC)CC2)c1C | 2.1 | -18 | 2733 | 8 | 3 | 16 | 4
O=C(O)c1cc(NC(=S)NC(=O)C(c2ccccc2)c2ccccc2)ccc1Cl | 3.4 | -7 | 4794 | / | -1 | -6 | 7
COc1ccccc1C(=O)NCCC(=O)NC1CCC(C)CC1 (stereo not drawn) | 1.4 | -54 | 8712 | / | 10 | 10 | 7
COc1ccc(-c2sc(NC(C)=O)nc2-c2ccccc2)cc1 | 3.8 | -28 | 2087 | 3 | 6 | 4 | 3
CCN1CCN(C(=O)CSc2nc3c(c(=O)n(C)c(=O)n3C)n2C)CC1 | 2.7 | -21 | 3673 | -8 | 6 | 2 | 4
CCOc1ccc(NC(=O)Cn2nnc(-c3ccccc3NC(=O)c3cccs3)n2)cc1 | 0.7 | -21 | 4348 | -12 | 3 | / | /
COc1ccc(CCN2CC(C(=O)N(C)CCn3nc(C)cc3C)CCC2=O)cc1 (stereo not drawn) | 3.5 | -18 | 6482 | -1 | 5 | 9 | 5
O=[N+]([O-])c1ccc(N2CCCC2)nc1 | 3.1 | -34 | / | 8 | 4 | -1 | -8
Cc1onc(-c2c(F)cccc2Cl)c1C(=O)NCc1ccc(F)cc1 | 1.0 | -38 | 4012 | 5 | -2 | 6 | -3
CCOC(=O)C1=C(C)N(CCCCCC(=O)O)C(=O)NC1c1ccccc1OS(=O)(=O)c1ccc(C)cc1 (stereo not drawn) | 9.5 | -35 | 4309 | -4 | 3 | 7 | 8
N#Cc1c(-c2ccccc2)nc(SCC(=O)Nc2ccccc2)[nH]c1=O | -0.3 | -11 | 2101 | / | 0 | -2 | -7
O/N=C/C1=C(Cl)c2ccccc2CC1 | / | -20 | 3384 | -5 | / | / | /
Cc1cccc(NS(=O)(=O)c2cccc(C(=O)N3CC(C)OC(C)C3)c2)c1 (stereo not drawn) | 1.5 | -1 | / | -2 | 3 | 0 | 5
CC(=O)Nc1ccc(NC(=O)C(C)Oc2ccccc2F)cc1 (stereo not drawn) | 3.9 | -14 | 14595 | -5 | 2 | 7 | 3
CCOc1ccccc1Oc1cn[nH]c1-c1ccc(OCC(=O)NN)cc1O | 5.1 | -16 | 3893 | 0 | 7 | 15 | 8
COC(=O)N/N=C/c1ccc([N+](=O)[O-])s1 | / | 7 | 2025 | 17 | / | / | /
CCn1c(=O)c(C(=O)NCCN2CCCCC2)c(O)c2ccccc21 | 0.9 | 10 | 7228 | 0 | 3 | -3 | -1
Cc1ccc(CSc2nnc(NC(=O)Cn3cnc4ccccc4c3=O)s2)cc1 | 0.6 | -10 | 4271 | 8 | 15 | 12 | 10
Cc1nc2sc(C(c3cccs3)N3CCN(c4ccccc4)CC3)c(O)n2n1 (stereo not drawn) | -0.9 | -1 | 6759 | 3 | -2 | -5 | 1
O=C(Nc1ccccc1)C1=CC(c2ccc(C(F)(F)F)cc2)CC(OCCCCO)O1 (stereo not drawn) | 4.2&-2.7 | / | / | / | 3&-20 | 13&3 | 9&11
Cc1ccc(NC(=O)CSc2nnc(-c3cccs3)o2)cc1S(=O)(=O)N1CCCCC1 | 5.1 | -22 | 2037 | -1 | -1 | / | /
O=C(COC(=O)c1ccc(S(=O)(=O)NCc2ccco2)cc1)Nc1ccc(OC(F)F)cc1 | 2.6 | -22 | 3145 | 3 | -4 | / | /
COc1cccc(N2CCN(Cc3nc4scc(-c5ccccc5)c4c(=O)[nH]3)CC2)c1 | 2.1 | -36 | 2605 | 16 | -5 | 3 | 11
CCOc1cc(C=NNC(=O)c2ccc(C)nc2)cc([N+](=O)[O-])c1O | 2.9 | / | / | / | 0 | 19 | 19
Nc1ccc2oc(-c3ccc4nc[nH]c4c3)nc2c1 | 5.2 | 7 | 5864 | 11 | -7 | 12 | 11
Cc1nccn1Cc1ccc(Cl)nc1 | 6.1 | -12 | 5120 | -6 | 3 | 9 | -3
Cc1ccc2c(c1)C(c1ccccc1)=NCC(=O)N2C | 2.7 | -30 | 4176 | -4 | 0 | -1 | 21
Cc1ccc(CCN2CC(C(=O)NC3CCCCC3)CC2=O)cc1 (stereo not drawn) | -1.4 | 2 | 3947 | 0 | 3 | -1 | -6
Cc1c(Cl)cccc1NC(=O)CSc1sc2c(O)cc(=O)[nH]c2c1C#N | 3.8 | -15 | 3522 | 3 | 5 | -3 | -3
CC(=NNC(=O)c1cc(-c2ccc(Br)s2)[nH]n1)c1ccco1 | -1.8 | / | / | / | -23 | -8 | -2
Cc1ccc(S(=O)(=O)N2CCOCC2)cc1NC(=O)COC(=O)c1ccc(Br)cc1 | 2.0 | -27 | 3455 | / | 6 | 9 | 7
O=C(COc1ccccc1Cl)NCc1ccncc1 | 4.3 | -14 | 3692 | 7 | 2 | 5 | 6
O=C(Nc1ccc(F)c(F)c1)c1cnc(-c2ccccc2)nc1-c1ccccc1 | 11 | -2 | ? | -1 | 6 | -1 | -5
COc1cccc(NC(=O)Nc2cc(C(=O)NCC3CCCO3)ccc2N2CC3CC(C2)c2cccc(=O)n2C3)c1 (stereo not drawn) | 0.1 | -15 | 5604 | 1 | 4 | 2 | 6
c1ccc2[nH]c(CN3CCOCC3)nc2c1 | 3.3 | -19 | 7000 | -13 | 13 | 6 | -10
Cn1c(=O)c2sccc2n2c(CCCC(=O)NCCc3ccc(S(N)(=O)=O)cc3)nnc12 | 4.8 | -6 | 5652 | 4 | 0 | -13 | -8
Cc1nn(Cc2ccccc2)c(C)c1NC(=O)CSc1n[nH]c(C)c1[N+](=O)[O-] | 1.9 | -23 | 2532 | -4 | 3 | 2 | 9
O=C(Nc1ccc(Cl)cc1)N1CCOC12CCCCC2 | -0.6 | -17 | 3791 | 3 | 0 | 12 | 1
CCn1c(SCC(=O)Nc2nccs2)nnc1-c1ccncc1 | 0.4 | -6 | 4959 | 2 | 2 | / | /
CCCc1cc(=O)oc2cc(C)cc(OCC(=O)NCc3ccccn3)c12 | / | 8 | 5496 | 4 | / | / | /

New compounds follow.
SMILES | Sa RN4220 lethal | PrP 5UTR inh | Bead autofluor | BJeLR viability | ugtP null kill | Mtb hypoxia inh | Mtb hypoxia inh growth
Cc1ccc(NS(=O)(=O)c2ccc(C(=O)NCc3cccnc3)cc2)cc1 | -0.2 | -19 | 6342 | -11 | 3 | 6 | 2
CS(=O)(=O)NCCSCc1ccco1 | 0.6 | -22 | 7256 | 4 | -1 | 5 | 7
Cc1oc(-c2ccc(Cl)cc2)nc1CN1CCCC(C(=O)NCc2cccnc2)C1 (stereo not drawn) | 4.3 | -14 | 10409 | 15 | -1 | 1 | 7
C=CCc1cccc(CNc2ccc(Br)cc2)c1O | -2.9 | -4 | 4539 | 0 | 8 | -11 | -8
